Beta cell apopt: inhibitors of cytokine-induced beta cell apoptosis, primary screen, luminescence; protection from apoptosis, % (no concentration beside the values); AID 435005, 2010; INS-1E cytokine-induced death, ATP luminescence, 48 h; percent of positive-control rescue, neutral wells zero; actives 0.8% (n = 300,000);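 active = all replicates at 75% or more, or half of them and the mean; inconclusive = half reach 75% but not the mean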;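 note: 0% = cytokine-treated negative control wells and 100% = positive control rescue; higher means more ATP so stronger rescue from cytokine killing; wells of about 40 µL received 100 nL stock; the first replicate is given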
Beta2AR agonist: beta2AR agonists driving receptor internalization, primary screen, cell-based, FAP fluorogen, flow cytometry | response, % (concentration not given with the values) | AID 504454, 2011 | actives 0.43% (n = 340,000) | Am2.2-beta2AR cells; reference of the scale not given here | Beta-2 adrenergic receptor (Homo sapiens), P07550;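 active = response above a set limit, near 3 SD of response in nonfluorescent compounds, cut at about 42% in these data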;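 note: stock transfer was 100 nL into about 11 µL; a reference agonist was the positive control; negative values mostly stem from fluorescent compounds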
Target sequence (P07550 whole entry, looked up): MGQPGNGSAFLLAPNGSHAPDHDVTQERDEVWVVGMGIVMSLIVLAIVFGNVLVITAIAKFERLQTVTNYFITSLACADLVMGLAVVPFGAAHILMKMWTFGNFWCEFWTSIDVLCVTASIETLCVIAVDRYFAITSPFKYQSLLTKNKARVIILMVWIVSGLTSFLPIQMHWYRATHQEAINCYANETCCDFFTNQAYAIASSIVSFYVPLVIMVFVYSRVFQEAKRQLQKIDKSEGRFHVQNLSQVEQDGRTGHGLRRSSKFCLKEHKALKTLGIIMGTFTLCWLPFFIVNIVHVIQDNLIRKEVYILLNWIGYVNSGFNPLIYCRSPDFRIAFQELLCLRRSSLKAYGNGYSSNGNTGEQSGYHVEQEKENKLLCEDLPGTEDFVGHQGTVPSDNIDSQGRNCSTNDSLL
A1 inh: caspase 3/7 activation in MEF A1-2A-BIM cells, primary screen, A1 inhibitor project, cell-based, luminescence, HTS. Caspase-Glo 3/7 luminescence, 3 h; percent of clofoctol response, vehicle zero. caspase activation, % (test concentration not listed). actives 0.066% (n = 330,000). AID 2462, 2010;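 active = over half of replicate activation scores above 10%, or exactly half above 10 with the replicate mean above 10; inconclusive = replicate mean below 10 yet half the replicates above 10; inactive = over half of replicates below 10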;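 note: wells of about 30 µL received 50 nL stock; many hits fall short of the cut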
rRNA inh HTS: reduced GFP signal of wild-type E. coli, primary screen, bacterial rRNA inhibitor project, GFP/RFP fluorescence, OD600, single point; actives 1.6% (n = 350,000); AID 720706, 2013; GFP signal change (wild-type ribosome), % (test concentration not listed); E. coli WT GFP vs humanized-ribosome RFP mutants, 24 h; stronger effect = lower value; DMSO median 0, no signal -100;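 active = significant combined selectivity score with lowered wild-type GFP, culture density cut under 30%, mutant RFP and density less affected; inactive = any of these conditions unmet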; note: one replicate is shown; some compounds called inactive have numbers as strong as hits
ALR H2O2 inh: inhibitors of human ALR sulfhydryl oxidase, primary screen, biochemical, H2O2 detection, HRP-luminol luminescence, single point; actives 3.8% (n = 290,000); purified ALR, DTT oxidation; AID 485317, 2010; FAD-linked sulfhydryl oxidase ALR (Homo sapiens), P55789; inhibition, % (no concentration beside the values);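 active = mean and each replicate at 75% or more; inconclusive = only one of the two met; inactive = neither met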;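 note: stock transfer was 7.5 nL into about 7.5 µL; 0% = neutral wells and 100% = wells with inactivated enzyme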
Target sequence (P55789 whole entry, looked up): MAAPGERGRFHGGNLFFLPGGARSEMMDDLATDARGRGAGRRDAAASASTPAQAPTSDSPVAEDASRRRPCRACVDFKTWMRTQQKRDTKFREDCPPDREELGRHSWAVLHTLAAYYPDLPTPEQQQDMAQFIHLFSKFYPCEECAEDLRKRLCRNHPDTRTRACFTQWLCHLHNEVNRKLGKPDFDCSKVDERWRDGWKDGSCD
LANA-H2B inh: blockers of LANA interaction with H2A/H2B – biochemical, FP readout, HTS, primary screen | inhibition, % (test concentration not listed) | cell-free LANA-H2A/H2B peptide, fluorescence polarization | Protein LANA1 (Human herpesvirus 8 type P (isolate GK18)), Q9QR71 | actives 0.6% (n = 320,000); in the data active = inhibition mostly above about 10%, no sharp cut-off; inactive = mostly below about 6.7%;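 note: stock transfer was 7.5 nL into about 10 µL; 0% = median of vehicle wells and 100% = median of positive control wells; one replicate is shown; the record names a cut of 25% in any replicate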
T cruzi repl: inhibitors of intracellular T. cruzi growth, primary screen, luminescence, NIH3T3 host cells; T. cruzi beta-gal in NIH3T3, 90 h; inhibition, % (no concentration beside the values); actives 1.4% (n = 300,000); AID 1885, 2009;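 active = mean inhibition across valid replicates above about 55%, limit read from the data; inconclusive = mean below that limit but half or more replicates reach it; inactive = mean below it, under half of replicates reach it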;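 note: signal also drops with host cell toxicity which is not excluded here; 0% = plate median of DMSO wells and 100% = zero luminescence signal; higher percent means less beta-gal luminescence so fewer parasites; stock transfer was 50 nL into about 50 µL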
Calb FLC: C. albicans growth inhibition with fluconazole, primary screen, CaCi-2 strain, Alamar Blue fluorescence; C. albicans CaCi-2 (fluconazole-resistant clinical isolate) + fluconazole, 48 h; growth inhibition, % (test concentration not listed); actives 0.57% (n = 300,000); AID 1979, 2009;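 active = most replicates above 75%; inconclusive = exactly half above 75%; inactive = most below 75%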;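 note: all wells also contain fluconazole at 8 µg/ml as a sub-toxic cotreatment; 0% = median of DMSO wells and 100% = median of geldanamycin control wells; wells of about 8 µL received 7.5 nL stock; the first replicate is given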
rRNA inh HTS OD600: second read-out of rRNA inh HTS, no call of its own (marks repeat the call); OD600 change, %; measured here: OD600 growth;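 optical density of the mix in the first replicate; 0 = DMSO median and -100 = no signal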
rRNA inh HTS RFP: recorded beside rRNA inh HTS, whose call it bears; RFP signal change, %; measured here: RFP humanized mutant strains;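 first replicate; 0 = DMSO median and -100 = no signal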
An asterisk follows results filed as active; u = inconclusive; x = not tested or not shown. Only part of the results is shown; count on the stated rates, not on these rows.

Order of values – Beta cell apopt	Beta2AR agonist	A1 inh	rRNA inh HTS	rRNA inh HTS OD600	rRNA inh HTS RFP	ALR H2O2 inh	LANA-H2B inh	T cruzi repl	Calb FLC
O=C(CSc1nc2[nH]ncc2c(=O)[nH]1)Nc1cccc(Cl)c1
→ x	-1	-0.2	-3	-7	-1.4	2	0.3	5	-1
COc1ccccc1NCN1C(=O)CCC1=O
→ -9	1	0.4	11	14	-1.5	x	-2.0	1	0
CSc1ccc(-c2cccc([N+](=O)[O-])c2)nn1
→ x	-15	-3.2	19	18	-1.8	8	5.4	-9	0
O=C(O)c1cccc(CSc2nnc(COc3ccccc3)o2)c1
→ -3	2	0.0	x	x	x	x	0.2	-15	4
Cc1cc(=O)[nH]c(SCC(=O)Nc2cc(S(=O)(=O)N(C)C)ccc2Cl)n1
→ -1	2	0.2	-5	3	-0.8	-4	-1.0	-3	-2
N#Cc1cccc(C(=O)Nc2cccc(S(=O)(=O)N3CCCC3)c2)c1
→ x	-13	-0.5	0	6	1.1	5	2.1	-8	-5
COc1ccc(C(C(=O)NC2CCCC2)N(Cc2ccco2)C(=O)c2snc(C(N)=O)c2N)cc1OC (stereo unspecified)
→ 2	6	0.5	8	9	-0.1	x	1.2	-15	2
COc1cccc(CNS(=O)(=O)c2cccc(S(=O)(=O)N3CCOCC3)c2)c1
→ 3	1	1.3	x	x	x	x	1.0	6	3
CCN1/C(=C/C=C/c2sc3ccccc3[n+]2CC)Sc2ccccc21
→ 101*	-13	-1.4	x	x	x	100*	-40	49	27
COc1ccc(S(=O)(=O)N(C)C)cc1NC(=O)CCCSc1ccccc1
→ -4	-16	1.3	-7	-19	2.2	3	-2.6	17	7
CC1(c2ccc(OC(F)F)cc2)NC(=O)N(CC(=O)NC2CCCC2)C1=O (stereo unspecified)
→ -5	-3	1.1	x	x	x	1	-3.1	x	x
O=C(Nc1ccccc1)/C(=C\c1ccccc1)NC(=O)c1ccco1
→ -5	-3	0.3	17	23	2.4	-1	3.2	27	0
N=C1/C(=C\c2ccc(OC(=O)c3ccc(F)cc3)cc2)C(=O)N=C2SC(N3CCOCC3)=NN12
→ -1	9	-1.4	-3	14	-1.2	95*	-2.0	-1	-8
O=C(COC(=O)CNS(=O)(=O)c1cc(C(F)(F)F)ccc1Cl)NC1CC1
→ 0	7	0.9	13	18	1.3	0	4.2	x	x
CC1(C)CC(=O)C(C=NCCN2CCN(C3CC(=O)N(c4ccc(Br)cc4)C3=O)CC2)=C(O)C1 (stereo unspecified)
→ x	-4	0.5	12	12	2.3	2	-6.6	-13	4
COc1cccc(/C=N/NC(=O)c2ccccc2NC(=O)c2ccco2)c1OC
→ -1	9	-0.9	-12	7	5.5	-2	1.1	7	10
O=C(c1ccc2c3n(nc2c1)-c1ccc(Cl)cc1CO3)N1CCOCC1
→ 1	-9	-1.1	-6	-1	-0.6	-4	-3.0	-10	12
O=C(NC(=S)Nc1ccccc1)c1csnn1
→ -5	7	0.3	9	9	1.3	14	-0.9	0	u
O=C(CNC(=O)c1ccccc1F)OCn1nnc2ccccc2c1=O
→ -4	-6	0.7	4	3	-2.5	2	-0.5	x	x
Cc1cc(NC(=O)CSc2nnc(CNC(=O)c3ccccc3)o2)no1
→ -2	-4	-0.1	7	5	0.6	-5	6.6	-1	x

(next part)
Order of values – Beta cell apopt	Beta2AR agonist	A1 inh	rRNA inh HTS	rRNA inh HTS OD600	rRNA inh HTS RFP	ALR H2O2 inh	LANA-H2B inh	T cruzi repl	Calb FLC
O=C(NNC(=O)c1ccc(Br)o1)c1ccc(NC(=O)c2ccccc2)cc1
→ 4	1	-0.3	13	15	0.1	50	5.5	4	2
Cc1cccnc1NC(=S)Nc1ccc(Cl)c(Cl)c1
→ 0	-3	-0.2	-63	-82	-23	-1	2.8	-11	-14
COCCn1c(SC2CCCCC2=O)nnc1-c1ccncc1 (stereo unspecified)
→ -3	-5	0.2	6	7	-2.0	34	-3.8	-12	22
CC1=CCn2c(=O)c3ccccc3c(=O)n2C1
→ -4	1	0.8	-4	9	0.0	4	-0.3	-34	11
CCN(CC)CCNC(=O)C1c2cc(OC)c(OC)cc2C(=O)N(C)C1c1cccs1 (stereo unspecified)
→ 0	-4	1.2	4	7	1.0	x	2.8	-15	-9
O=C(O)CC1(CC(=O)Nc2ccc3ccccc3c2)CCCCC1
→ 3	0	-0.3	x	x	x	2	-3.1	-10	4
Cc1noc(C(=O)Nc2ccc(C#N)cc2)c1Cl
→ 3	2	0.3	7	3	-4.2	-19	0.8	-1	-7
CS(=O)(=O)N(Cc1ccc(F)cc1)Cc1nc2ccccc2c(=O)[nH]1
→ -2	-1	0.6	x	x	x	13	3.9	-7	9
NS(=O)(=O)c1ccc(CCNc2ccnc3cc(Cl)ccc23)cc1
→ x	-1	1.4	-1	-16	-0.2	-4	13	-11	-5
Cc1cc(OCC(=O)NCC(c2cccs2)N2CCOCC2)ccc1C(C)C (stereo unspecified)
→ 8	-5	-1.6	-3	1	-3.8	0	-11	15	13
CC1(C)Cc2ccccc2C(Nn2cnnc2)=N1
→ -3	4	-0.6	21	9	3.3	-4	8.6	1	-3
O=C(COC(=O)c1ccc(Br)o1)Nc1cccc(S(=O)(=O)N2CCOCC2)c1
→ -4	-4	-0.5	0	-1	0.0	1	0.7	x	x
Cc1ccc(/C=C(\C#N)c2nc3ccccc3[nH]2)s1
→ 10	-5	-5.7	x	x	x	4	-1.6	7	9
CC(C)(C)NCC(O)COc1ccccc1C(=O)CCc1ccccc1 (stereo unspecified)
→ 9	15	2.0	-7	-9	5.3	5	-5.0	27	-36
COc1ccc(NC(=O)Cc2c(F)cccc2Cl)cc1
→ -2	0	0.5	13	9	-2.8	13	3.8	-10	0
N#C/C(C(N)=O)=C1/CCc2ccccc2N1
→ -31	5	-0.3	x	x	x	0	1.5	9	38
Cc1cc(C(=O)N2CCC(Cc3ccccc3)CC2)no1
→ -3	-2	0.4	0	-7	1.3	-3	-3.5	19	x
CC(=O)c1sc(NC(=O)c2ccc(C(C)(C)C)cc2)nc1C
→ 1	-3	-0.8	5	11	-0.4	-17	-4.5	0	-4
Cc1cnc(C(=O)Nc2ccc3c(c2)CCC3)cn1
→ 5	9	-8.5	x	x	x	-6	3.6	-5	15
Cc1cccc(CNC(=O)c2ccc3c(c2)N(C)CCS3)c1
→ 1	-8	0.1	5	-16	22	64	-0.6	9	-7

Part of the list above in order of number of heavy atoms, high to low.
Order of values – Beta cell apopt	Beta2AR agonist	A1 inh	rRNA inh HTS	rRNA inh HTS OD600	rRNA inh HTS RFP	ALR H2O2 inh	LANA-H2B inh	T cruzi repl	Calb FLC
Cc1cc(OCC(=O)NCC(c2cccs2)N2CCOCC2)ccc1C(C)C (stereo unspecified)
→ 8	-5	-1.6	-3	1	-3.8	0	-11	15	13
CC(C)(C)NCC(O)COc1ccccc1C(=O)CCc1ccccc1 (stereo unspecified)
→ 9	15	2.0	-7	-9	5.3	5	-5.0	27	-36
CC1(C)Cc2ccccc2C(Nn2cnnc2)=N1
→ -3	4	-0.6	21	9	3.3	-4	8.6	1	-3
N#C/C(C(N)=O)=C1/CCc2ccccc2N1
→ -31	5	-0.3	x	x	x	0	1.5	9	38

Next part
Compound	Beta cell apopt	Beta2AR agonist	A1 inh	rRNA inh HTS	rRNA inh HTS OD600	rRNA inh HTS RFP	ALR H2O2 inh	LANA-H2B inh	T cruzi repl	Calb FLC
COC(=O)c1ccc(-c2ccco2)n1Cc1cc(C)ccc1C	1	3	0.4	x	x	x	1	-2.0	1	-7
COc1ccc(OC(C)C(=O)NC2CC(C)(C)NC(C)(C)C2)cc1 (stereo unspecified)	-3	-1	-1.1	x	x	x	x	2.4	-8	-5
COCCC(=O)NC1CCCc2c1cnn2-c1cccc(C)c1C (stereo unspecified)	1	1	0.7	11	11	0.3	x	-0.8	-12	3
O=C1Nc2ccccc2C1=Nc1ccc(F)cc1	x	-2	0.5	x	x	x	x	-1.4	4	-30
COc1ccc(-n2c(SCC(=O)NCC3CCCO3)nc3n[nH]c(C)c3c2=N)cc1 (stereo unspecified)	4	-8	0.1	x	x	x	-10	-1.1	x	-4
O=C(NCCCN1CCOCC1)c1ccc2c(=O)n(CCc3ccccc3)c(=O)[nH]c2c1	0	3	0.1	x	x	x	-14	-6.0	0	7
CC(C)(C)C(=O)NC(=S)NCCc1ccccc1	-9	-10	0.7	x	x	x	-2	0.1	7	3
CCOC(=O)C1=C(C)NC(SCC(=O)Nc2cc(C)on2)=C(C#N)C1c1cccs1 (stereo unspecified)	x	6	0.0	x	x	x	-4	4.3	31	19

Compound activity deposited in PubChem BioAssay by several laboratories.
